High-throughput results deposited in PubChem BioAssay by ICCB-Longwood Screening Facility, Harvard Medical School.
Sa growth 42C = S. aureus growth inhibition at 42 and 30 °C, primary screen, LtaS inhibitor project, RN4220, two temperatures; OD600, 20 h, 42 °C; stronger effect = lower value; relative growth, % (test concentration not listed); 170,000 tested, 0.53% active; AID 720641, 2013;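 active = growth at 42 °C up to 50% and 20 or more points under that at 30 °C, or under 10% at both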;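 note: 300 nL library stock went into each well; scaled to the means of positive and negative controls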
HCMV NEC inh = inhibitors of HCMV UL50-UL53 interaction, biochemical, HTRF; HCMV UL50-UL53 nuclear egress complex (human cytomegalovirus); normalized percent inhibition; inhibition, % (no concentration beside the values); 190,000 tested, 0.15% active; AID 1918969, 2023;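 active = both replicates at 50% or more, plus weaker picks with an unusually low signal ratio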;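 note: stock transfer was 100 nL into about 20 µL; 0% = negative control wells and 100% = wells with untagged competitor protein; inactives centre near -12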
GIV Gai3 FP = inhibitors of GIV peptide binding to Galpha-i3, primary screen, biochemical, fluorescence polarization, FITC-GIV GBA peptide, rat Galphai3. Guanine nucleotide-binding protein G(i) subunit alpha-3 (Rattus norvegicus), P08753. 90 min; stronger effect = lower value; scaled: aluminum fluoride 0%, vehicle 100%. percent of control (FP), % (concentration not given with the values). AID 1224905, 2016. 210,000 tested, 0.42% active;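 active = replicate mean at 85% of control or lower, very high polarization wells dropped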;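 note: wells of about 15 µL received 100 nL stock; the first replicate is given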
Target sequence (P08753 whole entry, looked up): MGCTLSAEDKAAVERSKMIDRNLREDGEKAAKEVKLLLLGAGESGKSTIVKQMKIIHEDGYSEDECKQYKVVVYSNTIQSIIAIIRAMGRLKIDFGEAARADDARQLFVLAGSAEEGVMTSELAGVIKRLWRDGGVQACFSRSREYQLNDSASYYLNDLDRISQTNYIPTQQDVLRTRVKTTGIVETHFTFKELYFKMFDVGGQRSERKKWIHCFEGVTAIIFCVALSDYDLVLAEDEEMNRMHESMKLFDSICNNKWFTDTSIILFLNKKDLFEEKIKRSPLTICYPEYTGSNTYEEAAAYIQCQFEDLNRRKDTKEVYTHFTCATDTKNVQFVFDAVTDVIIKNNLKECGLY
Sa growth 42C second temp = recorded beside Sa growth 42C, whose call it bears; relative growth, %; measured here: growth at 30 °C;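 optical density after 20 h as mean of two plates; 100% = untreated growth and lower means inhibition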
* marks the source's active call; other numbers are inactive results; . = no result given; & = joins results of further samples.

item	structure	Sa growth 42C	Sa growth 42C second temp	HCMV NEC inh	GIV Gai3 FP
1	Cc1ccc(SCc2[nH]n(-c3nc4ccccc4s3)c(=O)c2C=NCc2ccco2)cc1	114	86	.	102
2	c1nc(NCCCN2CCOCC2)c2c3c(sc2n1)CCCC3	96	101	7	105
3	CCc1ccc(-n2c(N(C)Cc3ccccc3)nc3ccccc3c2=O)cc1	89	93	.	107
4	COc1cc(OC)cc(-c2noc(CCn3c(=O)[nH]c4cc5c(cc4c3=O)OCO5)n2)c1	.	.	-8	109
5	CCC(C(=O)c1ccccc1)n1nc(-c2cccs2)ccc1=O (stereo unspecified)	111	48	-12	105
6	Cc1nn2c(C(F)(F)F)cc(-c3ccc(OC(C)C)cc3)nc2c1C#N	99	85	-29	105
7	COc1cc(-c2nc3sc4c(c3c(=O)[nH]2)CCCC4)ccc1OCCOCCOc1ccc(C)c(C)c1	.	.	-17	104
8	Cc1ccc(-n2c(C)nnc2SCc2nc(-c3ccc(Cl)cc3)no2)cc1C	86	79	.	101

Continued.
item	structure	Sa growth 42C	Sa growth 42C second temp	HCMV NEC inh	GIV Gai3 FP
9	O=C(OCc1cc(=O)n2nc(C3CC3)sc2n1)c1ccc(F)cc1	93	93	.	103
10	CCOc1ccc(NC(=O)Cn2c(CCC(=O)O)ccc2-c2ccc(Cl)cc2)cc1	100	86	-21	95
11	Cc1cccc(NC(=O)Nc2ccc(SCc3cc(=O)n4c(ncn4C(C)C)n3)cc2)c1	.	.	-29	107
12	O=C(/C=C/c1ccccc1)Oc1ccccc1	99	89	.	109
13	O=C(O)P(=O)(O)O	95	91	-28&-29	.
14	O=c1c(N2CCc3ccccc3C2)csc2ccc(Cl)cc12	98	87	.	104
15	OCCN=Cc1[nH]c2ccccc2c1O	56	5	-54	117
16	O=C(/C=C/c1ccco1)N/C(=C\c1ccc2c(c1)OCO2)C(=O)N1CCCCCC1	94	70	2	96

Further records.
item	structure	Sa growth 42C	Sa growth 42C second temp	HCMV NEC inh	GIV Gai3 FP
17	CCOc1ccc(CCNC(=O)C2=C(C)C(=O)OC23CCC(C)CC3)cc1 (stereo unspecified)	96	89	.	100
18	COc1ccc(Oc2coc3cc(OC(=O)N4CCOCC4)ccc3c2=O)cc1	87	90	.	99
19	O=C(CC1N=C2c3ccccc3N=C(SCc3ccccc3Cl)N2C1=O)NC1CCCCC1 (stereo unspecified)	111	95	.	102
20	CCc1nnc(NC(=O)CCc2cccs2)s1	92	104	-10	105
21	O=C(N/N=C\c1ccncc1)c1ccc(COCC(F)(F)F)cc1	120	100	-64	113
22	CCOC(=O)C1=C(c2ccccc2)OC(N)=C(C#N)C1c1ccncc1 (stereo unspecified)	102	80	-42	104
23	O=c1cc(Cn2ncc(Cl)c(Cl)c2=O)[nH]c(=O)[nH]1	90	65	-58	.
24	CS(=O)(=O)N1CCCc2cc(C(=O)N(CC(=O)Nc3ccccc3C(F)(F)F)Cc3ccco3)ccc21	82	93	-15	.

Later entries.
item	structure	Sa growth 42C	Sa growth 42C second temp	HCMV NEC inh	GIV Gai3 FP
25	CC1CCCCN1c1nc2ccccc2n2cnnc12 (stereo unspecified)	110	62	.	106
26	Cn1cc(NC(=O)N2CCCc3ccccc32)c2ccccc2c1=O	86	87	-16	103
27	Cc1ccsc1CN(C(=O)c1oc2ccccc2c1C)C1CCS(=O)(=O)C1 (stereo unspecified)	120	85	-12	101
28	O=C(O)/C=C/C(=O)N1CCN(c2ncnc3scc(-c4ccccc4)c23)CC1	111	97	13	107
29	CC(=O)Nc1sc2c(c1C#N)CCc1ccccc1-2	103	84	0	108
30	CCCNC(=O)Nc1ccc2nc(N3CCN(C)CC3)cc(C)c2c1	105	96	-12	105
31	C/C=C/C(=O)Nc1ccc(N2CCN(c3ccc(C(F)(F)F)cn3)CC2)nc1	112	94	4	109
32	COc1cc(-c2noc(-c3ccccc3)n2)ccc1OCC(=O)NCCc1ccccc1	.	.	-35	108

Further structures
item	structure	Sa growth 42C	Sa growth 42C second temp	HCMV NEC inh	GIV Gai3 FP
33	Cc1cc(=O)n2ncnc2n1CC(=O)NN	97	97	20	103
34	Cc1cccc(CC(=O)NCCc2sc3nc(-c4ccc(F)cc4)nn3c2C)c1	100	108	.	99&97
35	COc1ccc(CNc2nc(-c3cccs3)c(C#N)c(=O)n2C)cc1	95	85	-37	104
36	O=C(COc1ccccc1)NCc1ccncc1	91	84	-11	.
37	O=C(Nc1cccc(Cl)c1)N1CCSc2ncccc21	.	.	-3	103
38	Cc1c(C)n(Cc2ccc(Cl)cc2)c2ccc(C(=O)N3CCN(c4ccccc4F)CC3)cc12	99	94	.	103
39	COc1ccc(NC(=O)Cn2cc(C(=O)C3CC3)c3ccccc32)cc1	91	89	-9	96
40	CCNS(=O)(=O)c1ccc2c(c1)oc(=O)c1cc(S(=O)(=O)NCC)ccc12	94	85	-82	103

Following part.
item	structure	Sa growth 42C	Sa growth 42C second temp	HCMV NEC inh	GIV Gai3 FP
41	CCSc1nc(-c2ccccc2OC)nc2c1Cc1c(CO)cnc(C)c1O2	99	96	.	105
42	Cc1ccsc1/C=N/NC(=O)CSc1nnc(-c2ccccc2)n1-c1ccccc1	82	84	-48	99
43	CCn1nccc1C1CCCN1S(=O)(=O)c1cccc2nsnc12 (stereo unspecified)	.	.	-123	97
44	COc1ccccc1NC(=O)N1CCN(c2ccc3nnc(-c4ccc(F)cc4)n3n2)CC1	99	84	-29	102
45	Cc1cccc(-c2nnc(SCC(=O)C34CC5CC(CC(C5)C3)C4)n2Cc2ccco2)c1	102	95	-21	.
46	CN(C(=O)CSc1nc2ccc(NC(=O)c3ccccc3)cc2s1)c1ccccc1	115	83	-11	99
47	O=C(Nc1ccc(Cl)cc1F)c1oc(=O)c2ccccc2c1-c1ccccc1	104	86	3	100
48	C=CCN(C(=O)CSc1nnc(CC)n2c1cc1oc(C)cc12)c1ccccc1	88	63	.	103

(cont.)
item	structure	Sa growth 42C	Sa growth 42C second temp	HCMV NEC inh	GIV Gai3 FP
49	COc1ccc(C(=O)N2c3ccccc3N=C(c3ccccc3)CC2c2ccccc2)cc1 (stereo unspecified)	.	.	-15	118&89
50	COc1ccccc1N1CCN(S(=O)(=O)c2c(C)nc3sc(C)c(C)n3c2=O)CC1	113	92	.	106
51	Cc1ccc(NC(=O)C2CCCN(S(=O)(=O)c3c(C)n[nH]c3C)C2)cc1C (stereo unspecified)	109	103	16	109
52	O=C(O)c1ccc(Nc2nc(-c3ccccc3)c3cc(Br)ccc3n2)cc1	98	93	-38	104
53	CC(=O)Nc1ccc(SCC(=O)/C(C#N)=C(\C)N)cc1	95	102	-6	.
54	CCCCOc1ccc(C(=O)Nc2ccc3c(c2)N(S(=O)(=O)c2ccccc2)CCC3)cc1	.	.	-21	110
55	C=CCN(CC=C)C(=O)C[n+]1ccc(C(N)=O)cc1	108	89	.	101
56	CNCC(=O)NC(c1ccccc1)c1ccccc1	112	95	-6	102

(list continues)
item	structure	Sa growth 42C	Sa growth 42C second temp	HCMV NEC inh	GIV Gai3 FP
57	O=C(c1cc2c(s1)-c1ccccc1OC2)N1CCN(c2ccc(F)cc2)CC1	108	97	2	103
58	CCCn1cc(S(=O)(=O)c2cccc(Cl)c2)c(=O)c2cc(F)c(N3CCOCC3)cc21	119	96	.	112
59	COc1ccccc1NC(=O)N=S1CCN(C(=O)c2ccc(Cl)cc2)CC1	93	90	-12	104
60	CCc1ccc(NC(=O)CCS(=O)(=O)c2ccc3c(c2)NC(=O)CS3)cc1	94	81	-22	99
61	CCn1nnnc1SCC(=O)Nc1ccccc1	98	82	-22	99
62	Cc1cccc(C(=O)Nc2c(C(=O)N3CCN(c4ccc(F)cc4)CC3)oc3ccccc23)c1	109	84	.	103
63	O=C(O)CC1C(=O)NC(=Nc2ccccc2)N1c1ccccc1 (stereo unspecified)	89	84	-40	105
64	Cc1ccc2nc(SCC(=O)Nc3ccc4c(c3)C(=O)c3ccccc3C4=O)[nH]c2c1	.	.	-6	110

Continued.
item	structure	Sa growth 42C	Sa growth 42C second temp	HCMV NEC inh	GIV Gai3 FP
65	COc1ccc(NC(=O)C(NS(=O)(=O)c2ccc3c(c2)c(=O)n(C)c(=O)n3C)c2ccccc2)cc1 (stereo unspecified)	111	92	-7	110
66	CCOC(=O)N1CCC(NC(=O)CN2C(=O)CCSc3ccccc32)CC1	88	92	-19	105
67	COc1ccc(S(=O)(=O)c2cn(C)c3ccc(C)cc3c2=O)cc1	100	84	-19	109
68	CCc1cccc(C)c1NC(=O)CN1C(=O)c2cccc3cccc1c23	93	89	-31	97
69	CN(C(=O)C1c2ccccc2C(=O)N2CCc3ccccc3C12)C1CCCCC1 (stereo unspecified)	120	91	.	102
70	CCC(=O)N1CCc2cc(Br)cc(S(=O)(=O)CCC(=O)Nc3cccc(C)c3C)c21	100	107	22	100
71	COc1ccc(Cn2c(C(=O)O)c(CNCCc3ccccc3Cl)c3ccc(C)cc32)cc1	102	92	.	102
72	COc1ccc2[nH]c3c(c2c1)CCN(C(=O)c1cccc(Cl)c1)C3c1ccc(F)cc1 (stereo unspecified)	80	71	-31	102

Continued:
item	structure	Sa growth 42C	Sa growth 42C second temp	HCMV NEC inh	GIV Gai3 FP
73	COc1cc(CN(C(=O)COc2ccccc2Cl)c2ccccn2)cc(OC)c1OC	110	81	-3	104
74	COc1ccc(C(=O)NNc2ncnc3c2cnn3-c2ccc(F)cc2)cc1	103	91	2	101
75	Cc1nn(-c2ccccc2)c(C)c1Sc1ccccc1	130	96	.	103
76	CCC(=O)Nc1ccc(C)cc1-c1nnc(SC(CC)C(=O)Nc2ccc(C)cc2C)[nH]c1=O (stereo unspecified)	.	.	4	102
77	CCOC(=O)C1CCCN(S(=O)(=O)Cc2ccccc2Cl)C1 (stereo unspecified)	98	98	-24	102
78	O=C(Nc1ccc(Cl)cc1)Nc1ccc(N2CCOCC2)cc1	36	36	7	107
79	COc1cccc(C2NC(=O)c3n[nH]c(-c4cccs4)c32)c1 (stereo unspecified)	108	69	-15	105
80	COc1ccc(N2C(=NC(=O)CCCC(=O)O)SC3CS(=O)(=O)CC32)cc1 (stereo unspecified)	104	85	-13	106

Following part.
item	structure	Sa growth 42C	Sa growth 42C second temp	HCMV NEC inh	GIV Gai3 FP
81	Cc1nc(-n2[nH]c(C)c(Cc3ccc(Cl)cc3)c2=O)sc1C(=O)N1CCCCC1	.	.	-23	101
82	COc1ccc(C=Nc2ccc(OCC(O)CN3C(C)CCCC3C)cc2)cc1OC (stereo unspecified)	71	94	.	98
83	CC1(C)CNC(=O)C=C(c2ccccc2)C1	103	80	-15	.
84	COc1ccc(Cl)cc1NC(=O)N1CCCN(c2ccc(=O)n(-c3ccc(Cl)cc3)n2)CC1	.	.	-18	103
85	COc1cccc(CNC(=O)c2cn(C)c(=O)c3c2c2ccccc2n3C)c1	99	86	-11	103
86	O=C(CC1CCN(C(=O)Nc2ccccc2)CC1)N1CCN(c2ccccn2)CC1	.	.	-32	99
87	CCn1c(O)c(C=NCCn2c(C)nc3ccccc32)c(=O)n(CC)c1=S	100	96	-10	.
88	COc1cc(C(=O)NNC2=CC(=O)CC(C)(C)C2)cc(OC)c1OC	115	84	-18	.

Continuation:
item	structure	Sa growth 42C	Sa growth 42C second temp	HCMV NEC inh	GIV Gai3 FP
89	Cc1cc(N2CCOCC2)nc2ccc(NC(=O)Nc3ccc4c(c3)OCCO4)cc12	.	.	19	98
90	Cc1cc(=O)oc2c(/C=N/c3ccccn3)c(O)ccc12	102	84	26	105
91	COc1cccc(NC(=O)Nc2nncs2)c1	96	83	40	.
92	Cc1c(C)c(C)c(CS(=O)(=O)CC(=O)Nc2ccc(F)c(Cl)c2)c(C)c1C	80	90	4	98
93	Cc1ccsc1CCN1C(=O)N(c2ccc(F)cc2)C(=O)C1CC(=O)Nc1ccccc1 (stereo unspecified)	101	86	-36	100
94	CCN(CC)C(=O)CSc1nc2ccccc2cc1C	118	105	0	103
95	COc1ccc(OC)c(NC(=O)Cn2nc3c(Sc4ccccc4)nc4ccccc4n3c2=O)c1	.	.	-7	105
96	Nc1cc(Cl)c(N2CCOCC2)cc1N1CCOCC1	101	84	.	96

Structures shown so far with a cyano group:
item	structure	Sa growth 42C	Sa growth 42C second temp	HCMV NEC inh	GIV Gai3 FP
6	Cc1nn2c(C(F)(F)F)cc(-c3ccc(OC(C)C)cc3)nc2c1C#N	99	85	-29	105
22	CCOC(=O)C1=C(c2ccccc2)OC(N)=C(C#N)C1c1ccncc1 (stereo unspecified)	102	80	-42	104
29	CC(=O)Nc1sc2c(c1C#N)CCc1ccccc1-2	103	84	0	108
35	COc1ccc(CNc2nc(-c3cccs3)c(C#N)c(=O)n2C)cc1	95	85	-37	104
53	CC(=O)Nc1ccc(SCC(=O)/C(C#N)=C(\C)N)cc1	95	102	-6	.
